TRPML1 inh: qHTS for Inhibitors of the Human Mucolipin Transient Receptor Potential 1 (TRPML1); TRPML1-inducible cells, Ca2+ dye fluorescence, FDSS; active compounds read low; inhibition of EC80 agonist-evoked calcium signal; activity change, negative = inhibition, % (concentration not given with the values); AID 624415, 2012; 0.02% of 390,000 active; in the data active means activity change below about -50%; inconclusive means about -30% to -50%; inactive means above about -30%;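 also: stimulus is agonist 54-4 at its EC80 concentration; % is scaled to controls: 0 for no effect and ±100 for the full control effect; the text of the record puts the active cut at -80%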
Target sequence (Q9GZU1 whole entry, looked up): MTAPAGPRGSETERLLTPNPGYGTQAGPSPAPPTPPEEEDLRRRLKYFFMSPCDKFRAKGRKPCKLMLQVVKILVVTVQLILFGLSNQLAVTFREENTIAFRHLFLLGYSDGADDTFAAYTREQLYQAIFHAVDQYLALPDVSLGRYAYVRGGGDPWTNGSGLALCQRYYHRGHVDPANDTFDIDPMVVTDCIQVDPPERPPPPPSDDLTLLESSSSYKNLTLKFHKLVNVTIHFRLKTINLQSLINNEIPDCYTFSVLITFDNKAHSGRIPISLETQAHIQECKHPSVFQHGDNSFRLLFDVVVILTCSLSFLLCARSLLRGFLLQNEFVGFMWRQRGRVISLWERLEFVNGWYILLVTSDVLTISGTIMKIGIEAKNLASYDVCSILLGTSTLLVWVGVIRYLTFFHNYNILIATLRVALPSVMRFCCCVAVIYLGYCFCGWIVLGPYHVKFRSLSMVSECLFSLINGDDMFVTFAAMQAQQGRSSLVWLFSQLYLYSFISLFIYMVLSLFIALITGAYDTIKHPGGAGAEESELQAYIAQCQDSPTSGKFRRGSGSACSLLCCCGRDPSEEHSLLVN
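Tet-induced TRPML1-DL cells loaded with Ca8 no-wash calcium dye were read kinetically on FDSS. Compound addition was followed by EC80 agonist 54-4 (4 uM final); inhibition was read over 110 s.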
Menin MLL FP FL: qHTS Assay for Inhibitors Targeting the Menin-MLL Interaction in MLL Related Leukemias: Competition With Fluorescein Labeled MLL-derived Peptide; FP activity change, % at 61.4 µM; Fluorescence polarization, fluorescein-MLL peptide displacement from menin; 290,000 tested, under 10 active; inconclusive = falling polarisation curve, or a change in total fluorescence; inactive = total fluorescence flat and polarisation flat or rising; no compound was filed as active; the % refers to the polarisation; negative = inhibition;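 also: % of control where 0% means no effect; inhibitors lower the polarisation; unlabelled MLL peptide was the positive control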
TRPML1 agonist: qHTS for Agonists of the Human Mucolipin Transient Receptor Potential 1 (TRPML1); Mucolipin-1 (Homo sapiens), Q9GZU1; TRPML1-expressing cells, Ca2+ dye fluorescence, FDSS; host cell line not named in the record; reference of the full effect not given here; activation, % (no concentration beside the values); 0.12% of 410,000 active; in the data active = activation above about 50%; inconclusive = about 30% to 50%; inactive = below about 30%; also: 0% is about no effect; the text of the record puts the active cut at 80%
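Kinetic FDSS Ca2+ read in Tet-induced TRPML1-DL cells (ABD Ca8 dye plus quencher, 45-90 min RT loading): baseline, then compound, then 110 s agonist window; EC80 agonist 54-4 at 4uM final added afterwards for a 110 s antagonist window.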
gsp antag: qHTS for Antagonists of gsp, the Etiologic Mutation Responsible for Fibrous Dysplasia/McCune-Albright Syndrome: qHTS. gsp-mutant cells, cAMP HTRF, 30 min; control for the full effect not named in the record. Potency, µM (highest dose often 76.9 µM), without a hit: at the top dose activity change, negative = inhibition, usual class: inhibitors. 0.4% of 340,000 active. AID 624288, 2012; active = falling curve of any shape with a large fitted effect; inconclusive = falling curve, mostly with a smaller effect; inactive = flat or rising curve; cell line not stated here;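 also: intracellular cAMP measured with PDE inhibitor Ro 20-1724 present during compound exposure; potency is read from the fitted curve at half-maximal effect; % is scaled to controls: 0 for no effect and ±100 for the full control effect; nearly all actives have a fitted effect of over 65% in size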
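Cells, 2000/well, grown 16–24 h in DMEM 10% FBS with 0.5 mg/ml G418, then compounds plus […] (300 uM addition stock), 30 min at 37C. cAMP read by HTRF (cAMP-d2 and anti-cAMP antibody-K in lysis buffer) after 30 min RT.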
gsp agonist: qHTS for Agonist of gsp, the Etiologic Mutation Responsible for Fibrous Dysplasia/McCune-Albright Syndrome: qHTS; gsp mutant cells, cAMP HTRF, 30 min; control for the full effect not named in the record; Potency, µM (series often up to 76.9 µM), for inactives: top-dose activation (cAMP increase), actives largely listed as activators; 0.13% of 340,000 active; active = well fitted activation curve with a large enough effect; inconclusive = small, poorly fitted or top-dose-only effect, or another doubt; inactive = no such curve, though single readings can be large or run the other way; cell line not stated here;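 also: phosphodiesterase inhibitor Ro 20-1724 added with compounds to block cAMP breakdown; potency is read from the fitted curve at half-maximal effect; nearly all actives have a fitted effect of over 60% in size; about a fifth of the inactives were tested at one dose only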
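Cells in DMEM/10% FBS with G418 were pretreated with compounds in DMSO plus […] (300 uM stock) for 30 min at 37C. cAMP was measured by HTRF (cAMP-d2 plus anti-cAMP antibody-K) after 30 min at room temperature.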
ClpP mod: qHTS Assay for Activators of ClpP. ATP-dependent Clp protease proteolytic subunit (Bacillus subtilis (strain 168)), P80244. purified B. subtilis ClpP, FRET peptide cleavage, 20 min. Potency, µM (titrated, usually from 57.5 µM), for inactives: at the top dose activity change, negative = active. 1.9% of 340,000 active. AID 651965, 2013; active = well fitted falling curve with a large enough effect; inconclusive = small, poorly fitted or top-dose-only effect; inactive = no such curve, though single readings can be large or run the other way; also: potency is read from the fitted curve at half-maximal effect; the source files actives as falling curves though it sought activators and does not explain the sign; nearly all actives have a fitted effect of over 65% in size; many hits overshoot -100%
Target sequence (P80244 whole entry, looked up): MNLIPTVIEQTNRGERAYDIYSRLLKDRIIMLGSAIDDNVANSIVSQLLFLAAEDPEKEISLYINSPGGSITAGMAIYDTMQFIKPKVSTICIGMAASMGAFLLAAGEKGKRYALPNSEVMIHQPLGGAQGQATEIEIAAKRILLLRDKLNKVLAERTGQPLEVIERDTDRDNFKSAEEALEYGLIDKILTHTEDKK
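FRET quenching reversal measured ClpP activation: 10 microg/mL B. subtilis ClpP at pH 8 with the FRET-FV decapeptide, read at 430 nm after 320 nm excitation. The 20-min minus 0-min signal was scaled between DMSO/no-enzyme wells and ADEP (5.8 microM final).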
Numbers without * were called inactive; ? = inconclusive; · = no result given; [ ] = dose if it differs, or a comment.

SMILES	TRPML1 inh	Menin MLL FP FL	TRPML1 agonist	gsp antag	gsp agonist	ClpP mod
COC(=O)C(CCC(C(=O)OC)N1C(=O)c2ccccc2C1=O)N1C(=O)c2ccccc2C1=O (centres undefined)	34	·	1.2	-19%	-31%[inhibitor]	-0.4%
CC1=C(C(=O)N2CCOCC2)CC(CC(=O)NC2CCCC2)C(=O)N1Cc1ccc(F)cc1 (centres undefined)	9	·	-0.2	·	?	1.9%
CCCc1cc(=O)[nH]c(SCC(=O)Nc2c(C)cccc2C)n1	-7	4.7	1.3	-1%	6%	-0.5%
CCOC(=O)C1CCCN(C(=O)c2cc(-c3ccccc3)nc3ccccc23)C1 (centres undefined)	36	-3.6	0.1	4%	4%[15.4 µM]	·
CCc1nc(SCC(=O)NCCc2ccccc2)n[nH]1	-21	1.1	-0.1	6%	16%	-1.1%
N#Cc1ccccc1NC(=O)CSc1n[nH]c(=O)n1C1CC1	-3	·	0.1	2%	?	·
CCN(CC)C(=O)C1=C(C)N(CCCOC)C(=O)C(CC(=O)NC2CC2)C1 (centres undefined)	7	·	-0.3	·	?	0.1%
CC1Cc2ccccc2N1C(=O)Cn1c(=O)oc2cc(S(=O)(=O)NC3CCCC3)ccc21 (centres undefined)	-2	6.5	0.3	2%	?	-3.4%
Cc1ccc(NC(=O)c2cc(NC(=O)CCC(=O)O)ccc2N2CCCCC2)cc1	-7	-0.6	-0.6	-24%	2%	-1.9%
COC(CNC(=O)C1CCCN(S(=O)(=O)c2ccc3c(c2)oc(=O)n3C)C1)OC (centres undefined)	1	-3.2	-0.2	12%	9%	-0.7%
CCOc1cc(C(=O)N/N=C/C(Br)=C/c2ccccc2)cc(OCC)c1OCC	4	3.9	0.5	11%	4%[15.4 µM]	6.7%
CCSc1nc2sc3c(c2c(=O)[nH]1)CC(C)(C)OC3	0	-8.3	-0.2	-5%	0%	0.8%
O=C(c1ccc(NS(=O)(=O)c2ccc(F)cc2)cc1)N1CCN(c2ccccc2O)CC1	-2	·	-0.2	9%	-10%	-7.1%
COC(=O)CSc1nnc(CNS(=O)(=O)c2ccc(C)cc2)n1C	4	8.4	-1.0	10%	-23%	1.1%
Cc1ccc(S(=O)(=O)N(C)c2nc3ccccc3[nH]c2=S)cc1	·	0.3	·	-4%	-1%	-8.3%
COc1cccc(NC(=S)N(CCCN2CCOCC2)C(C)c2cc3cccc(OC)c3o2)c1 (centres undefined)	-19	1.3	0.9	-6%	8%	-0.8%
CC(C)C(NC(=O)c1ccco1)C(=O)NCc1ccc(C(=O)O)cc1 (centres undefined)	-7	-3.7	-0.6	9%	0%[15.4 µM]	·
CCS(=O)(=O)Nc1c(C(=O)OC)[nH]c2ccccc12	3	3.0	0.6	9%	0%	-28%
O=C(Nc1ccc(F)cc1F)c1ccc2ncsc2c1	-6	-2.3	-0.1	9%	-1%	-4.2%
Cc1cc(F)c(F)c(C(=O)N2CCOCC2)c1Cl	3	4.3	-0.2	3%	-11%	1.1%
CCOc1cc2c(cc1OCC)C(CC(=O)O)N(C(=O)Nc1ccc(Br)c(C)c1)CC2 (centres undefined)	-11	·	0.7	·	·	-7.7%
CN(C(=O)CO/N=C/c1ccc(Cl)cc1)c1ccccc1	1	-2.6	-0.6	0%	7%[15.4 µM]	-2.1%
COc1ccccc1NC(=O)CSc1nnc(NC(=O)C2CC2)s1	14	-4.1	0.1	-18%	-11%[15.4 µM]	·
Cc1cc(-c2ccccc2)cc(C)n1	-6	·	0.2	5%	2%	·
O=C1CS(=O)(=O)C2(C(=O)N(Cc3ccccc3)c3ccccc32)N1c1ccccc1 (centres undefined)	-1	·	0.8	·	·	1.4%
O=c1[nH][nH]c2ccccc2c1=O	-4	2.0	1.0	6%	-7%[15.4 µM]	·
Clc1cccc(CN2C3=NCCCN3c3ccccc32)c1	·	0.3	·	-1%	-21%	0.9%
COc1ccc(C2C(C(=O)c3sc(C)nc3C)=C(O)C(=O)N2CCN(C)C)cc1 (centres undefined)	-7	7.7	-0.7	6%	15%	-18%
Cc1cnc(=O)[nH]c1SCc1ccccc1F	26	3.7	0.2	6%	-4%	-0.9%
Cc1oc2ncnc(N3CCCCC3)c2c1C(=O)Nc1cccc(F)c1	?	·	0.7	·	·	3.7%
O=C1CCC/C(=N\NC(=O)c2ccc(COc3ccccc3-c3ccccc3)cc2)C1	-3	1.2	3.3	-20%	-17%	-1.6%
Cc1ccc(-n2nc3cc(C)c(NC(=O)c4ccc(-c5ccccc5)o4)cc3n2)cc1	-8	·	0.4	·	·	?
CCOc1ccc(NC(=O)CNc2cccc(S(=O)(=O)N3CCCCCC3)c2)cc1OCC	37	·	-1.7	-28%	0%	-2.6%
COc1ccc(NC(=O)C(CC(=O)O)Cc2ccccc2)cc1 (centres undefined)	4	-1.7	-0.6	5%	2%	-2.0%
O=C(Nc1cccc(Cl)c1)c1ccc2c(c1)SC1=NS(=O)(=O)CCN12	-5	-7.4	0.4	-5%	?	·
Cc1cc(C(c2nnnn2Cc2ccccc2)N2CCOCC2)c(C)n1-c1ccc2c(c1)OCO2 (centres undefined)	-4	-2.6	0.1	-14%	-46%[inhibitor]	-1.5%
Cc1ccc(S(=O)(=O)Nc2ccc3ccccc3c2)cc1	-14	·	3.5	-35%	-18%	1.5%
Cc1cc(=O)c2c([nH]1)c(C)cc1[nH]c(C)c(C)c12	19	·	2.1	-16%	?	4.0%
Cc1ccc(/C=C/C(=O)NC(C)c2ccccc2)cc1 (centres undefined)	-2	-0.6	0.3	4%	-41%[inhibitor]	-1.8%
CCC(CC)C(=O)c1c[nH]c(C(=O)NCc2ccccn2)c1	23	4.0	1.2	11%	-35%[15.4 µM]	·

Single records, from the list above. Order of screens: TRPML1 inh | Menin MLL FP FL | TRPML1 agonist | gsp antag | gsp agonist | ClpP mod
Results for `O=C(Nc1cccc(Cl)c1)c1ccc2c(c1)SC1=NS(=O)(=O)CCN12` : -5 | -7.4 | 0.4 | -5% | ? | ·
Results for `O=c1[nH][nH]c2ccccc2c1=O` : -4 | 2.0 | 1.0 | 6% | -7%[15.4 µM] | ·

Other entries follow.
SMILES	TRPML1 inh	Menin MLL FP FL	TRPML1 agonist	gsp antag	gsp agonist	ClpP mod
COc1ccc(S(=O)(=O)c2c(O)c3ccc(C(=O)Nc4cccc(F)c4)cc3[nH]c2=O)cc1	-17	-0.2	0.5	2%	21%	-19%
Cn1cc(/C=N/NC(=O)c2ccccc2O)c2ccccc21	·	6.9	·	-19%	-107%	-13%
CN(Cc1nc(CCc2ccccc2)no1)Cc1cccs1	1	-2.1	0.2	6%	?	·
C[C@H](Cc1ccccc1)Nc1ncnc2c1ncn2[C@@H]1O[C@H](CO)[C@@H](O)[C@H]1O	-2	·	-0.6	-7%	·	2.8%
COc1ccc(NC(=O)CSc2nc(-c3ccc(F)cc3)[nH]c2-c2ccc(C)cc2)cc1OC	-7	·	2.5	·	·	-7.6%
CCOC(=O)CN(C(=O)CSc1nnc(Cc2ccccc2)n1-c1ccc(C)cc1)c1ccccc1	-9	-0.9	1.4	?	-52%[inhibitor]	4.2%
Cc1sc2ncnc(SCC(=O)N3CCCC(C(N)=O)C3)c2c1C (centres undefined)	1	·	0.2	4%	7%[15.4 µM]	·
O=C1c2ccccc2C(Nc2ccc3nc(-c4cccnc4)[nH]c3c2)N1Cc1ccco1 (centres undefined)	9	-2.7	-0.3	-27%	-179%[inhibitor]	-20%
CC(C)(C)c1ccc(NC(=O)COC(=O)CCN2C(=O)c3cccc([N+](=O)[O-])c3C2=O)cc1	16	3.3	2.2	-14%	-22%	-3.0%
O=C(C1CCN(S(=O)(=O)Cc2ccccc2)CC1)N1CCN(c2ccc(F)cc2)CC1	9	·	1.1	·	·	-6.1%
O=C(O)CCC(NC(=O)C1CCCN1C(=O)OCc1ccccc1)C(=O)O (centres undefined)	-7	2.5	1.1	11%	-41%[inhibitor]	·
Cc1ccc(OC(C)C(=O)Nc2ccncc2)cc1 (centres undefined)	·	4.7	·	-5%	-1%	2.1%
C=CCn1c2ccccc2c2nnc(SC(CC)C(=O)Nc3sc4c(c3C#N)CCCC4)nc21 (centres undefined)	10	1.7	1.2	-4%	0%	-3.8%
COc1cccc2c1C(CO)N1C(C#N)C3CC(C(=O)O)C(C1C2)N3C (centres undefined)	·	2.8	·	12%	·	1.1%
Cc1ccc(-c2nc3ccccc3c(=O)n2NC(=S)N(C)C)cc1	5	-2.0	0.7	5%	-14%	?
O=c1[nH]c2ccccc2cc1CN(Cc1ccco1)S(=O)(=O)c1ccc(F)cc1	11	·	-0.9	-1%	-28%	?
CN(C1CCCCC1)S(=O)(=O)c1ccc2c(c1)c(=O)c(C(=O)NCCCN1CCCC1)cn2C	-8	0.5	0.1	4%	21%	0.0%
COc1ccc(N/C(=N\c2nc(C)cc(C)n2)NC(=O)C(C)C)cc1OC	1	-1.1	-1.3	9%	5%	0.0%
O=C(N1CCN(S(=O)(=O)c2ccc(Cl)cc2)CC1)n1ccnc1	21	·	-0.6	9%	-29%	0.0%
Cc1cccc(CCNS(=O)(=O)c2ccc3c(c2)oc(=O)n3C)c1	20	8.7	0.1	3%	7%	-4.1%
O=C(c1cc(S(=O)(=O)N2CCOCC2)c(Cl)cc1Cl)N1CCCC1	1	·	1.0	14%	-4%[15.4 µM]	-0.5%
CCC(C)C(=O)Nc1ccc(S(=O)(=O)N2CCCC2)cc1 (centres undefined)	-3	-4.2	0.4	-8%	-22%	0.5%
O=C(NCc1ccccn1)c1ccc(CNS(=O)(=O)c2cccc(Cl)c2)cc1	8	-0.9	-0.5	3%	-35%[inhibitor]	-2.3%
COc1ccc(/C=C2\SC(=O)N(CC(=O)NC3C=CS(=O)(=O)C3)C2=O)cc1 (centres undefined)	2	-2.3	-0.1	13%	26%	-1.3%
CN1CCCN(Cc2ccccc2Br)CC1	-1	1.7	-0.1	7%	-1%[15.4 µM]	1.3%

Three entries drawn at random from those above, as already listed:
SMILES	TRPML1 inh	Menin MLL FP FL	TRPML1 agonist	gsp antag	gsp agonist	ClpP mod
CN(C(=O)CO/N=C/c1ccc(Cl)cc1)c1ccccc1	1	-2.6	-0.6	0%	7%[15.4 µM]	-2.1%
COC(=O)C(CCC(C(=O)OC)N1C(=O)c2ccccc2C1=O)N1C(=O)c2ccccc2C1=O (centres undefined)	34	·	1.2	-19%	-31%[inhibitor]	-0.4%
CCc1nc(SCC(=O)NCCc2ccccc2)n[nH]1	-21	1.1	-0.1	6%	16%	-1.1%
